Assay outcomes as filed in PubChem.
YopH inh: YopH (Yersinia) phosphatase inhibition; inhibition, %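 (about 10 µM by stock and volumes)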; 140,000 tested, 0.16% active; fluorescence Ex485/Em525;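 active = inhibition of 50% or more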;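 also: controls were vehicle for no effect and minimum signal wells for full effect; inactives centre near -20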
Mtb H37Rv: M. tuberculosis H37Rv growth inhibitors, H37Rv strain (AID 1626); inhibition, % at 10 µM; hits with a dose series show IC50 in µM; 220,000 tested, 0.95% active; M. tuberculosis H37Rv growth inhibition; higher % means a stronger effect;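 active = confirmed in a dose series; inconclusive = inhibition above 80% but not taken into the dose series; inactive = below 80% or under 30% at every dose of the series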;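 also: bacteria incubated seven days before Alamar blue readout; 0% = bacteria only wells and 100% = bacteria with antibiotic wells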
Mtb bLac sens: beta-lactam sensitization of Mtb H37Rv. 330,000 tested, 0.27% active. AID 434955. M. tuberculosis H37Rv growth with meropenem, percent inhibition; hits of this screen are not shown here. inhibition, % at 25 µM;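 active = about 74% or more and at least 40 points above the plate without the antibiotic, then above 30% in a dose series; inconclusive = first-round hits that could not be retested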;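 also: growth measured after seven days incubation then overnight dye step; 0% = bacteria only wells and 100% = bacteria with antibiotic; twin plates without the antibiotic show which effects depend on it; some results filed as inactive read as strong as hits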
Arbovirus anti: blocks arbovirus infection; 200,000 tested, 0.37% active; arbovirus infection cell-based antiviral screen; inhibition, % at 10 µM; AID 1251;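 active = inhibition from about 30%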;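 also: bluetongue infection of BSR cells; cell survival read as ATP light after 72 h; 0% = infected wells without compound and 100% = uninfected wells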
RecA splice inh: Mtb RecA intein splicing inhibition; cell-free RecA intein splicing, fluorescence; inhibition, %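 (about 9 µM by stock and volumes)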; 290,000 tested, 0.75% active; AID 2221; in the data active = inhibition above about 30%; inconclusive = no clear call, values can overlap the other calls;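 also: 0% = vehicle wells and 100% = reference inhibitor control wells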
Target sequence (P9WHJ3 whole entry, looked up, canonical isoform): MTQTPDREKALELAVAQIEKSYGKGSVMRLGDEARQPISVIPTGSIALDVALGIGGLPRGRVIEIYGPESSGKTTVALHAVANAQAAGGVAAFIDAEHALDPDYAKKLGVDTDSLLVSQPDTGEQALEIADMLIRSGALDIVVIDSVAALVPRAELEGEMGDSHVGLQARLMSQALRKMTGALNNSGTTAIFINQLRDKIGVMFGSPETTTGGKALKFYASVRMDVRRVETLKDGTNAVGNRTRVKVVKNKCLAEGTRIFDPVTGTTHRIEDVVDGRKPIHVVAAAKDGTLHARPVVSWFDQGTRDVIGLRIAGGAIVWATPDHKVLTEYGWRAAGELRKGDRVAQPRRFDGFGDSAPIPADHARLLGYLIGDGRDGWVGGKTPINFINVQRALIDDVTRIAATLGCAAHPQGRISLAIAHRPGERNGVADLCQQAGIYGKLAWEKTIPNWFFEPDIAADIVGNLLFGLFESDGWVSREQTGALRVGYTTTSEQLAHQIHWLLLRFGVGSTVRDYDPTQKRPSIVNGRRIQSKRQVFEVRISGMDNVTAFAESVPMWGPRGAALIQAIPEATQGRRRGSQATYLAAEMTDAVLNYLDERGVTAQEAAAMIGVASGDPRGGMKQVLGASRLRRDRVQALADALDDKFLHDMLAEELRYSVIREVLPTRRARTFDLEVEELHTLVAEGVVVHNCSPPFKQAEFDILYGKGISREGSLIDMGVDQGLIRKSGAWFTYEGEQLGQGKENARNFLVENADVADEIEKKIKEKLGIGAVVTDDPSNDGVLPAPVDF
Arbovirus anti repeat: second read-out of Arbovirus anti, no call of its own (marks repeat the call); inhibition, %; measured here: 10K subset replicate screen; many hits read low in the repeat;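 first of two repeat runs on a subset; 0% = infected and 100% = uninfected wells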
An asterisk follows results filed as active; u = inconclusive; x = no result given.

SMILES	YopH inh	Mtb H37Rv	Mtb bLac sens	Arbovirus anti	RecA splice inh	others
Cc1ccc(N2CC(C(=O)Nc3nnc(SCCC4OCCO4)s3)CC2=O)cc1 (centres undefined)	x	x	4.7	x	-1.8
Cn1nnnc1N=N/C(=N/Nc1ccccc1)c1ccccc1	x	48.4%	89.0	x	1.6
O=C(O)c1ccc(SCc2ccccc2)nc1	x	x	1.0	x	3.1
Cc1cccc(N2CCC(NCc3c(C(=O)N4CCCCC4)nc4c(C)cccn34)CC2)c1	x	4.4%	-1.1	19.4	2.1
CN(CC(=O)Nc1ccc(S(=O)(=O)N2CCCC2)cc1)Cc1c(F)cccc1Cl	x	2.9%	3.1	2.6	4.3
COc1ccc(NC(=O)CN(c2cccc(F)c2)S(C)(=O)=O)cc1OC	-12.9	12.8%	2.0	7.8	0.8
Cc1ccccc1N1CCN(C(=O)NCc2cccc(Cl)c2)CC1	x	x	-2.8	x	-0.8
O=C(O)c1cc(S(=O)(=O)Nc2ccccc2Cc2ccccc2)ccc1Cl	x	x	-3.3	x	0.8
COc1ccc(C(=O)Nc2ccc3ccccc3n2)cc1OC	x	x	6.5	x	0.2
CCC(Oc1cc(Cl)ccc1Cl)C(=O)N1CCCN(C)CC1 (centres undefined)	x	x	0.3	x	0.9
COc1ccccc1-c1cc(C(=O)N2CCCc3ccccc32)no1	x	10.2%	9.5	-0.3	5.6
O=C(Nc1ccncc1)C1CCN(S(=O)(=O)c2ccccc2)CC1	x	x	-7.1	x	-2.9
CC(C)c1ccc(N2CC(C)(C)C2=O)cc1	x	-5.0%	-3.1	0.5	1.5
CCC1CCCCN1CC(=O)c1c(C)[nH]c2ccccc12 (centres undefined)	-38.2	-13.4%	-7.2	-1.3	0.1
COc1ccc(OCc2nnc(SCC(=O)N3c4ccccc4Sc4ccc(Cl)cc43)o2)cc1	-14.4	1.1%	14.0	-0.7	4.1
NC(=O)C1(N2CCCCC2)CCN(c2nc(-c3ccccc3)cs2)CC1	-32.0	8.2%	11.1	17.6	6.3
CCOC(=O)C1(Cc2ccccc2)CCN(CC2CC=CCC2)CC1 (centres undefined)	x	-10.1%	-0.8	-9.3	-0.8
Cc1nc(C(=O)Nc2ccc(Cl)cc2Cl)nn1-c1cc(OC(C)C)c(Cl)cc1Cl	-38.0	15.8%	13.9	5.2	6.6
O=C1c2cc(Cl)ccc2OC2(CCNCC2)C12CC(c1ccccc1)=NO2 (centres undefined)	x	-6.0%	5.6	x	1.6
COc1cccc(/C=N/NC(=O)c2ccc(OCc3cccc(Br)c3)cc2)c1	7.0	5.6%	-6.1	-19.4	4.2
CCC(=O)Nc1ccc(N2CCC(C)CC2)cc1	-25.2	13.8%	-6.2	-5.2	-3.1
CCOC(=O)C1=C(CC)OC(N)=C(C#N)C1c1cc(OC)ccc1OC (centres undefined)	-2.8	-6.2%	-12.4	-6.4	-1.3
NS(=O)(=O)c1ccc(N/N=C/c2ccccn2)c([N+](=O)[O-])c1	x	4.5%	1.4	3.1	-3.2
CC(=O)/C(=N\Nc1ccc(Cl)cc1)Sc1nnc(-c2ccccc2)n1-c1ccccc1	-19.1	u	80.8	-11.6	0.2
O=C(CSc1nnnn1Cc1ccccc1)Nc1ccc2c(c1)OCCO2	-14.5	1.3%	-13.9	4.7	2.4

(more compounds)
SMILES	YopH inh	Mtb H37Rv	Mtb bLac sens	Arbovirus anti	RecA splice inh	others
Cc1ccc2nc(/N=C(\N)NC(=O)NC3CCCCC3)nc(C)c2c1	x	5.92µM*	99.1	x	5.5
O=C(CCCC(=O)N(CC(=O)NC1CCCCC1)Cc1ccco1)Nc1ccccn1	-18.6	-0.4%	4.9	4.5	-2.5
O=C(NC1CCCCC1)C(c1ccc(Cl)cc1)N1CCC2(CC1)OCCO2 (centres undefined)	-11.8	-4.3%	-8.2	-6.2	-0.2
C/C(N)=C(/C#N)C(=O)COC(=O)c1ccc(NC(N)=O)cc1	x	-6.0%	-3.0	x	-2.9
Cc1cccc(NC(=O)c2ccc(OCC3CCCO3)cc2)c1C (centres undefined)	-31.9	-6.8%	-4.7	-4.2	0.3
CN(Cc1ccccc1NS(=O)(=O)c1ccc(Cl)cc1)C1CCCCC1	x	-1.9%	15.0	-2.3	-0.6
CC1CC(OC(=O)CN2CCCCC2)CC(C)(C)C1 (centres undefined)	x	-8.4%	2.1	x	0.6
O=S(=O)(Nc1ccc(OC(F)F)cc1)c1ccc(-c2ccon2)s1	x	x	3.2	x	2.5
COc1ccc(S(=O)(=O)NC2CC(=O)N(c3ccc(C)c(C)c3)C2)cc1 (centres undefined)	x	x	-1.7	x	1.9
COC(=O)c1ccc(Cn2nnc3c(=O)[nH]c(C4CCCN(S(=O)(=O)c5ccccc5)C4)nc32)cc1 (centres undefined)	x	x	1.2	x	-3.2
COc1cccc2sc(Nc3nc(-c4ccccn4)cs3)nc12	-52.9	<0.195µM*	98.5	-29.8	-1.1
O=C(NNC(=O)c1sccc1-n1cccc1)c1ccc(Cl)cc1	-18.6	0.0%	2.2	-4.4	-4.9
CCOC(=O)c1sc(C)c2c1NC1(CCCCCC1)NC2=O	21.4	3.2%	-1.2	7.5	-1.3
CC(C)CCn1c(CN2CCOCC2)nc2c1c(=O)n(C)c(=O)n2C	-22.2	-9.2%	-2.9	-4.7	-2.6
Cc1ccc(NC(=O)CCC(=O)NNC(=O)c2ccccc2)c(C)c1	x	-0.9%	-1.2	3.0	0.0
O=C(OCC(=O)N1CCCc2ccccc21)c1ccc(Cl)nc1	-17.1	60.1%	4.1	-1.9	3.6
COc1ccc(NC(=O)CCCN2C(=O)C3CC=CCC3C2=O)cc1 (centres undefined)	x	x	25.5	x	-0.7
CCC(=O)NCCNC(=O)c1c(SC)nsc1SC	-39.9	-11.4%	-10.9	13.3	-0.7
COc1ccc2oc(C(=O)OCC(=O)Nc3ccccc3)c(C)c2c1	x	x	-6.2	x	-2.3
CCOC(=O)CCSc1nc(-c2ccccc2)cc(C(F)(F)F)n1	-14.3	3.6%	4.9	6.1	4.7
COc1ccc(Cl)cc1C(=O)NCCS(=O)(=O)N1CCN(c2ccccc2F)CC1	x	x	24.1	x	-2.4
O=C(/C=C/c1ccccc1)NCCSCc1ccc(Cl)cc1	-19.8	5.2%	-1.2	2.2	4.5
CC(=NCCO)c1c(O)n(C2CCCCC2)c(=O)[nH]c1=O	-45.0	-1.6%	-17.4	11.8	0.4
c1ccc(-c2noc(CSc3nnnn3-c3ccccc3)n2)cc1	-43.0	-1.4%	-0.8	8.4	0.1	Arbovirus anti repeat=-8.7
O=C(/C=C/c1ccccc1)NC(NC(=S)Nc1ccc(Cl)cc1Cl)C(Cl)(Cl)Cl (centres undefined)	-46.5	2.1%	7.9	-13.8	-1.6

Of the compounds above, these have an NH in an aromatic ring.
SMILES	YopH inh	Mtb H37Rv	Mtb bLac sens	Arbovirus anti	RecA splice inh	others
CCC1CCCCN1CC(=O)c1c(C)[nH]c2ccccc12 (centres undefined)	-38.2	-13.4%	-7.2	-1.3	0.1
COC(=O)c1ccc(Cn2nnc3c(=O)[nH]c(C4CCCN(S(=O)(=O)c5ccccc5)C4)nc32)cc1 (centres undefined)	x	x	1.2	x	-3.2
CC(=NCCO)c1c(O)n(C2CCCCC2)c(=O)[nH]c1=O	-45.0	-1.6%	-17.4	11.8	0.4

More compounds follow:
SMILES	YopH inh	Mtb H37Rv	Mtb bLac sens	Arbovirus anti	RecA splice inh	others
O=C(Nc1ccc(C(=O)O)cc1)/C(=C/c1ccc([N+](=O)[O-])cc1)NC(=O)c1ccccc1	x	1.9%	-2.0	12.0	-1.2
O=c1oc(-c2ccccc2)nc2sc3c(c12)CCC3	-29.3	9.1%	x	16.1	1.3
Cc1ccc(-c2nnn(CC(=O)O)n2)cc1	-27.5	-6.5%	-3.5	2.4	0.0
Cc1ccc(NC(=O)Nc2cnccn2)cc1C	x	-4.0%	4.7	x	-3.8
CCc1ccccc1NC(=O)C1CCN(c2cnccn2)CC1	x	x	-3.6	x	-0.2
CN1CCN(c2ccc(S(=O)(=O)C(F)(F)F)cc2[N+](=O)[O-])CC1	-16.1	x	-5.0	-1.0	-1.4
CCOC(=O)c1c(-c2cccs2)csc1NC(=O)c1ccco1	-20.9	-2.6%	-0.9	-2.7	2.1
CCOC(=O)c1ccc(NC(=S)Nc2cccc(N)n2)cc1	x	59.5%	88.0	x	0.7
O=C(Nc1ccc(S(=O)(=O)Nc2nccs2)cc1)c1ccc(=O)[nH]c1	x	-4.8%	-3.9	2.4	-3.4
COc1ccc(OCC(=O)NCc2ccc(Cl)cc2)cc1	x	x	11.0	x	0.7
CCc1nnc(NC(=O)CSc2nnc(C3CCCCC3)n2-c2cccc(Cl)c2)s1	-43.3	-10.1%	u	11.9	6.9
COc1ccc(N2CCN(CCCNC(=S)Nc3c(C)cccc3C)CC2)cc1	x	3.5%	-2.3	10.1	-1.1
COc1ccc(NC(=O)CSc2nnc3ccc(-c4ccccn4)nn23)cc1OC	x	x	-1.0	x	-3.4
Cn1ccnc1C(O)c1cccc(OCc2ccccc2)c1 (centres undefined)	x	x	5.0	x	0.6
Cc1ccc(NC(=O)CNC(=O)c2ccco2)nc1	x	x	-9.6	x	4.1
Cc1ccc(-c2ocnc2C(=O)N2CCOCC2)cc1	x	x	-2.6	x	-0.8
CC(=O)c1c(C)nc(-c2ccc(Cl)cc2)nc1N	x	12.7%	5.8	4.6	-0.2
Cc1cccc(C2(c3cccc(C)c3)CC2C(=O)NCC2CCCO2)c1 (centres undefined)	-10.2	4.2%	3.1	-5.2	3.8
O=C(CCC(=O)OCC(F)(F)C(F)F)Nc1ccc(Cl)cc1	-47.7	-4.5%	7.7	6.6	-1.2
O=C(CC1Nc2ccccc2NC1=O)Nc1cc(Cl)cc(Cl)c1 (centres undefined)	-5.2	42.5%	70.6	-18.0	-41.5
O=C(CCN1C(=O)/C(=C/c2cccs2)SC1=S)Nc1ccccn1	x	1.4%	92.3	0.9	-1.8
Cc1ccc(N2CC(C(=O)Nc3nnc(SCC(=O)NCC4CCCO4)s3)CC2=O)cc1 (centres undefined)	x	x	-8.2	x	0.1
CC(=O)OC1CSc2nc3ccccc3n2C1 (centres undefined)	-32.6	-4.1%	-20.4	-1.2	4.2
CC(=O)c1cccc(NC(=O)Nc2ccc(C(=O)N3CCCC3)cc2)c1	-14.7	-7.9%	11.3	-1.0	-1.6
COc1ccc(C2OC(=O)c3ccccc3S2)cc1 (centres undefined)	-43.5	-0.6%	77.4	2.2	-2.3

Nothing new here: 19 of the compounds above.
SMILES	YopH inh	Mtb H37Rv	Mtb bLac sens	Arbovirus anti	RecA splice inh	others
CCOC(=O)c1c(-c2cccs2)csc1NC(=O)c1ccco1	-20.9	-2.6%	-0.9	-2.7	2.1
CCOC(=O)c1ccc(NC(=S)Nc2cccc(N)n2)cc1	x	59.5%	88.0	x	0.7
O=C(Nc1ccc(S(=O)(=O)Nc2nccs2)cc1)c1ccc(=O)[nH]c1	x	-4.8%	-3.9	2.4	-3.4
COc1ccc(OCC(=O)NCc2ccc(Cl)cc2)cc1	x	x	11.0	x	0.7
CCc1nnc(NC(=O)CSc2nnc(C3CCCCC3)n2-c2cccc(Cl)c2)s1	-43.3	-10.1%	u	11.9	6.9
COc1ccc(N2CCN(CCCNC(=S)Nc3c(C)cccc3C)CC2)cc1	x	3.5%	-2.3	10.1	-1.1
COc1ccc(NC(=O)CSc2nnc3ccc(-c4ccccn4)nn23)cc1OC	x	x	-1.0	x	-3.4
Cn1ccnc1C(O)c1cccc(OCc2ccccc2)c1 (centres undefined)	x	x	5.0	x	0.6
Cc1ccc(NC(=O)CNC(=O)c2ccco2)nc1	x	x	-9.6	x	4.1
Cc1ccc(-c2ocnc2C(=O)N2CCOCC2)cc1	x	x	-2.6	x	-0.8
CC(=O)c1c(C)nc(-c2ccc(Cl)cc2)nc1N	x	12.7%	5.8	4.6	-0.2
Cc1cccc(C2(c3cccc(C)c3)CC2C(=O)NCC2CCCO2)c1 (centres undefined)	-10.2	4.2%	3.1	-5.2	3.8
O=C(CCC(=O)OCC(F)(F)C(F)F)Nc1ccc(Cl)cc1	-47.7	-4.5%	7.7	6.6	-1.2
O=C(CC1Nc2ccccc2NC1=O)Nc1cc(Cl)cc(Cl)c1 (centres undefined)	-5.2	42.5%	70.6	-18.0	-41.5
O=C(CCN1C(=O)/C(=C/c2cccs2)SC1=S)Nc1ccccn1	x	1.4%	92.3	0.9	-1.8
Cc1ccc(N2CC(C(=O)Nc3nnc(SCC(=O)NCC4CCCO4)s3)CC2=O)cc1 (centres undefined)	x	x	-8.2	x	0.1
CC(=O)OC1CSc2nc3ccccc3n2C1 (centres undefined)	-32.6	-4.1%	-20.4	-1.2	4.2
CC(=O)c1cccc(NC(=O)Nc2ccc(C(=O)N3CCCC3)cc2)c1	-14.7	-7.9%	11.3	-1.0	-1.6
COc1ccc(C2OC(=O)c3ccccc3S2)cc1 (centres undefined)	-43.5	-0.6%	77.4	2.2	-2.3

An excerpt; rates above refer to the full screens.
